AID504770: growth inhibitors of E. coli YBA685 in a screen for V. cholerae RctB (chromosome II replication) inhibitors | E. coli YBA685 rctB-dependent plasmid, OD600 growth, 3 h; stronger effect = lower value | z-score (test concentration not listed) | 0.27% of 130,000 active | AID 504770;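 active = z-score under -2 on both plates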;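 also: wells of about 30 µL received 100 nL stock; score is relative to mean and SD of the test wells; the first replicate is given; strong numbers were not always called active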
CapD inh: blocks the Bacillus anthracis CapD enzyme; purified CapD enzyme, fluorescence intensity read-out; stronger effect = lower value; some hits fall short of the stated cut; z-score (no concentration beside the values); 0.23% of 140,000 active; AID 492967;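 active = z-score under -4 in either of two replicates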;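 also: stock transfer was 100 nL into about 40 µL; score is relative to mean and spread of the plate; one replicate is shown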
Numbers without * were called inactive. Rows are unselected. About 0.41% of those tested had a hit in this group.

Sample of the layout, 17 compounds:
Screening N#Cc1nc2c(C#N)c3ccc4ccccc4n3c2nc1C#N returned AID504770 -0.6.
For CCCCOc1cc(C(=O)O)ccc1OC the results were CapD inh 0.15.
`CCCN(CCC)C(=O)Nc1cn(CC(C)C)c(=O)c2ccccc12` gave AID504770 0.3 and CapD inh 35.
CC(C)C1=NC(C(F)(F)F)(C(F)(F)F)NN1c1ccccc1 was read as AID504770 0.65 and CapD inh 0.15.
`COC(=O)CN1C(c2ccc(Br)cc2)=Nc2ccc(Br)cc2C1c1ccccc1` (stereo not drawn) gave CapD inh -0.12.
CCCc1nc2ccccc2n1CC(=O)N(CC)C1CCCCC1 was read as AID504770 -0.9.
For CCN(CC)CC(O)Cn1c(C)c(C)c2ccccc21 (stereo not drawn) the results were AID504770 1.8 and CapD inh -1.1.
Screening N#CC1=C(N)SC2CSCC2=C1 (stereo not drawn) returned AID504770 0.3.
For C=CCOC(=O)C1=C(C)OC(N)=C(C(=O)OCc2ccccc2)C12C(=O)Nc1ccccc12 (stereo not drawn) the results were CapD inh 0.15.
Screening CCOC(=O)c1c(C)nn(-c2ccc(NC(=O)c3c(F)cccc3F)cn2)c1C returned CapD inh 2.1.
For O=C(CSc1nc2ccccc2c(=O)[nH]1)c1ccc(-c2ccccc2)cc1 the results were AID504770 0.45 and CapD inh 0.24.
For O=C(Nc1ccccc1)Nc1csc(-c2ccc(C(F)(F)F)cc2)n1 the results were AID504770 -0.75 and CapD inh 82.
For N#Cc1cnc(-c2cnccn2)nc1N the results were AID504770 -0.1 and CapD inh 1.5.
`CSc1sc(C(=O)NNC(=O)OCC2COC(C)(C)O2)cc1-c1nc(C)cs1` (stereo not drawn) gave CapD inh 3.
`O=C(Nc1ccccc1C(=O)NCCCN1CCCC1)C1=CSCCO1` gave AID504770 -0.4 and CapD inh 0.64.
For O=C(CCc1ccccc1)Nc1nn2c(-c3ccccc3)nnc2s1 the results were AID504770 2 and CapD inh 0.46.
For O=C(OCC(=O)N1CCc2ccccc2C1)c1cccnc1Cl the results were AID504770 -3.7 and CapD inh 0.3.

Results, from the first entry:
Screening N#Cc1nc2c(C#N)c3ccc4ccccc4n3c2nc1C#N returned AID504770 -0.6.
For CCCCOc1cc(C(=O)O)ccc1OC the results were CapD inh 0.15.
`CCCN(CCC)C(=O)Nc1cn(CC(C)C)c(=O)c2ccccc12` gave AID504770 0.3 and CapD inh 35.
CC(C)C1=NC(C(F)(F)F)(C(F)(F)F)NN1c1ccccc1 was read as AID504770 0.65 and CapD inh 0.15.
`COC(=O)CN1C(c2ccc(Br)cc2)=Nc2ccc(Br)cc2C1c1ccccc1` (stereo not drawn) gave CapD inh -0.12.
CCCc1nc2ccccc2n1CC(=O)N(CC)C1CCCCC1 was read as AID504770 -0.9.
For CCN(CC)CC(O)Cn1c(C)c(C)c2ccccc21 (stereo not drawn) the results were AID504770 1.8 and CapD inh -1.1.
Screening N#CC1=C(N)SC2CSCC2=C1 (stereo not drawn) returned AID504770 0.3.
For C=CCOC(=O)C1=C(C)OC(N)=C(C(=O)OCc2ccccc2)C12C(=O)Nc1ccccc12 (stereo not drawn) the results were CapD inh 0.15.
Screening CCOC(=O)c1c(C)nn(-c2ccc(NC(=O)c3c(F)cccc3F)cn2)c1C returned CapD inh 2.1.
For O=C(CSc1nc2ccccc2c(=O)[nH]1)c1ccc(-c2ccccc2)cc1 the results were AID504770 0.45 and CapD inh 0.24.
For O=C(Nc1ccccc1)Nc1csc(-c2ccc(C(F)(F)F)cc2)n1 the results were AID504770 -0.75 and CapD inh 82.
For N#Cc1cnc(-c2cnccn2)nc1N the results were AID504770 -0.1 and CapD inh 1.5.
`CSc1sc(C(=O)NNC(=O)OCC2COC(C)(C)O2)cc1-c1nc(C)cs1` (stereo not drawn) gave CapD inh 3.
`O=C(Nc1ccccc1C(=O)NCCCN1CCCC1)C1=CSCCO1` gave AID504770 -0.4 and CapD inh 0.64.
For O=C(CCc1ccccc1)Nc1nn2c(-c3ccccc3)nnc2s1 the results were AID504770 2 and CapD inh 0.46.
For O=C(OCC(=O)N1CCc2ccccc2C1)c1cccnc1Cl the results were AID504770 -3.7 and CapD inh 0.3.
For CCC1=C(C)/C(=C\c2[nH]c(C)c(CC)c2C)N=C1C the results were AID504770 -2 and CapD inh -1.6.
Cc1csc2ncc(C(=O)N(C)c3ccccc3)c(=O)n12 was read as AID504770 -1.4 and CapD inh -0.29.
Screening CC(=O)SC(C)CC(=O)Nc1ccccc1 (stereo not drawn) returned AID504770 0.1 and CapD inh 0.39.
For O=C(c1ccc(Cn2c(=S)[nH]c3ccc(Br)cc3c2=O)cc1)N1CCN(Cc2ccc3c(c2)OCO3)CC1 the results were CapD inh -0.73.
Screening Cc1c(CNC2CCC(C)CC2)c(C(=O)O)c(C)n1Cc1ccccc1 (stereo not drawn) returned AID504770 1.5 and CapD inh 0.2.
`Cc1noc(C)c1Cn1nnc(-c2cccc(C(F)(F)F)c2)n1` gave AID504770 -0.1.
For CCc1ccc2[nH]c(C(=O)NCCc3ccccc3)cc2c1 the results were AID504770 0.3 and CapD inh 10.
`O=C1CC(c2ccco2)Sc2nc(-c3ccc(F)cc3)nn21` (stereo not drawn) gave AID504770 -0.4.
`Cc1ccccc1CNC(=O)Cc1cccs1` gave AID504770 0.7 and CapD inh -0.07.
Screening OC(c1ccc(-c2ccccc2)[nH]1)C(F)(F)F (stereo not drawn) returned AID504770 1.1 and CapD inh -0.52.
For CCOC(=O)c1ccc(S(=O)(=O)N2CCN(Cn3cnc4ccccc43)CC2)cc1 the results were AID504770 0.2.
Screening CN(C)C(=S)Nc1ccccc1N1CCOCC1 returned AID504770 -0.6 and CapD inh -0.62.
`CCc1n[nH]c(=S)n1/N=C/c1ccsc1` gave AID504770 -0.5.
For Cn1c(SCCCn2c(=O)[nH]c3ccccc32)nnc1C(F)(F)F the results were AID504770 -0.75.
CSC1=C(C#N)C(c2ccc(C(C)C)cc2)CC(=O)N1 (stereo not drawn) was read as AID504770 0.4 and CapD inh 1.9.
Screening O=C(CN(Cc1ccccc1)C(=O)Cn1nnc(-c2ccc(F)cc2)n1)NC1CCCC1 returned AID504770 -0.4.
Screening CCOC(=O)c1c(CNc2cccc(C(N)=O)c2)n(C)c2cc(Br)c(OC(C)=O)cc12 returned AID504770 0.1 and CapD inh 9.6.
Cc1cc(C)nc(NS(=O)(=O)c2ccc(NC(=O)c3ccc(F)cc3)cc2)n1 was read as CapD inh 0.27.
For CCOC(=O)c1ccc(NC(=O)c2ccc(=O)[nH]c2)cc1 the results were AID504770 0.1.
COc1ccc(C2Nc3ccccc3C(=O)N2c2ccccc2)cc1CN1CCOCC1 (stereo not drawn) was read as CapD inh 29.
For ON=C1CCC2CC1CC/C2=N\O the results were AID504770 -0.1.
Screening CCCCNC(=O)NC1Cc2ccccc2C1 returned CapD inh 0.09.
`CN(C)c1ccc(CNc2nc3ccccc3n2C)cc1` gave AID504770 0.4 and CapD inh 0.1.
`O=C(CCOc1ccccc1)Nc1ccc(O)c(-c2nc3ccccc3s2)c1` gave AID504770 2.5 and CapD inh -0.32.
For c1ccc(CSc2nnc(-c3cnccn3)s2)cc1 the results were AID504770 -0.65 and CapD inh 4.9.
`O=C(O)c1cn[nH]c1-c1ccccc1` gave AID504770 -0.5.
For COc1ccc(C2CC(=O)C3=C(C2)Nc2ccccc2NC3c2ccc(OC(C)=O)cc2)cc1OC (stereo not drawn) the results were CapD inh -1.2.
O=C(c1ccc2ncsc2c1)N1CCCCC1 was read as AID504770 0.85 and CapD inh -0.59.
Screening CC1(C)CC(=O)C2=C(C1)OC1=C(C(=O)CC(C)(C)C1)C2c1ccc(OCc2c(F)cccc2Cl)cc1 returned CapD inh -0.17.
For COc1ccc(I)cc1S(=O)(=O)NCc1ccccn1 the results were AID504770 -0.3 and CapD inh 0.63.
For CN=C1S/C(=C\c2cn(C(C)=O)nc2-c2ccc(F)cc2)C(=O)N1C the results were CapD inh -0.72.
`CCOc1cccc2c1OC(c1ccc(C(=O)OC)cc1)N1N=C(c3cccs3)CC21` (stereo not drawn) gave CapD inh 0.37.
For CC(=O)Nc1ccc(S(=O)(=O)N(C)C2CCN(Cc3c(Cl)cccc3Cl)C2)cc1 (stereo not drawn) the results were CapD inh 0.42.
`CCN(CC)C(=O)/C(=C/c1ccc([N+](=O)[O-])cc1)NC(=O)c1ccco1` gave CapD inh -1.6.
Screening Cc1cc(C)nc(NS(=O)(=O)c2ccc(NC(=O)C3C(C=C(Cl)Cl)C3(C)C)cc2)n1 (stereo not drawn) returned CapD inh -0.04.
Screening N#CCC1NCCc2ccccc21 (stereo not drawn) returned AID504770 3.1 and CapD inh -2.3.
For COc1cccc(NC(=O)COC(=O)c2cccc(S(=O)(=O)N(C)C)c2)c1 the results were AID504770 -0.1.
Screening O=c1cccc2n1CC1CC2CN(C(=S)Nc2ccccc2)C1 (stereo not drawn) returned AID504770 -0.4.
COc1ccc(C2=NN(CC(=O)NCC3CCCO3)C(=O)CC2)cc1 (stereo not drawn) was read as AID504770 -0.95 and CapD inh -0.49.
O=c1c2cnn(-c3ccccc3)c2ncn1/N=C/c1ccncc1 was read as AID504770 -0.3.
`Cc1oc2ncn(CC(C)C)c(=O)c2c1NC(=O)NC1CCCCC1` gave AID504770 -0.9 and CapD inh 0.015.
For Fc1ccc(-c2cc(-c3ccccc3)nc(Cl)n2)cc1 the results were CapD inh -0.15.
`CC(C)(C)OC(=O)NC1CCN(S(=O)(=O)c2cccc(S(=O)(=O)N3CCOCC3)c2)CC1` gave AID504770 -0.85 and CapD inh -0.025.
Screening O=[N+]([O-])c1ccc(Sc2ncc3ccccn23)nc1 returned CapD inh -0.32.
O=C(c1ccc(COc2ccccc2Br)cc1)N1CCc2ccccc2C1 was read as AID504770 0.1 and CapD inh -0.5.
Screening NC(=O)C1CCN(S(=O)(=O)c2cc(Cl)sc2Cl)CC1 returned AID504770 -0.35 and CapD inh 0.35.
`CN(C)c1ccc(/C=C/C=N/c2oc(-c3ccco3)c(-c3ccco3)c2C#N)cc1` gave CapD inh 0.41.
`Cc1nc2ccncc2cc1C(=O)NCc1cccc(C(F)(F)F)c1` gave CapD inh 0.23.
Screening O=C(Nn1c(-c2ccc(Br)cc2)nc2ccccc2c1=O)c1ccc(Cl)c([N+](=O)[O-])c1 returned CapD inh -0.76.
O=C(c1cc(Cl)nc(Cl)c1)N1CCC(N(C2CC2)S(=O)(=O)c2ccc(Cl)cc2)CC1 was read as CapD inh -0.55.
O=C(CNS(=O)(=O)c1ccc(Cl)cc1)NC1CCCC1 was read as AID504770 -0.4.
Screening Cc1cccc(OC(C)C(=O)NN)c1C (stereo not drawn) returned AID504770 -0.05.
Screening COc1ccc(CNCc2ccc(F)cc2)cc1 returned AID504770 -0.6 and CapD inh 0.51.
CC(=O)Nc1ccc(/C=N/NC(=O)N/N=C/c2ccc(NC(C)=O)cc2)cc1 was read as CapD inh -1.6.
For COc1ccc(C2C3=C(NCCN=C3c3ccccc3)C(=O)N2c2ccccc2)cc1OC (stereo not drawn) the results were CapD inh -0.36.
CN(C)c1ccc(CNC23CN4CN(CN(C4)C2)C3)cc1 was read as AID504770 -0.35.
`CCCCN(CN1C(=O)C2C3C=CC(C3)C2C1=O)CN1C(=O)C2C3C=CC(C3)C2C1=O` (stereo not drawn) gave CapD inh 0.025.
Screening CCOC(=O)c1cc2c(nc1C)-c1ccccc1C2=NC1CCCCC1 returned CapD inh -0.14.
Clc1ccc(NC2CCCCC2)nn1 was read as AID504770 -1.
CC1CC(C)(C)NC(=S)N1CC(=O)N1CCC(Cc2ccccc2)CC1 (stereo not drawn) was read as CapD inh 0.66.
Screening S=c1nc2[nH]c(=S)[nH]c(=S)c2c(-c2ccco2)[nH]1 returned AID504770 0 and CapD inh 0.46.
For CC(C)(C)c1ccc(C2=NC(=O)C(CC(=O)O)S2)cc1 (stereo not drawn) the results were AID504770 -0.7 and CapD inh -0.98.
O=C1CN(C(=O)/C=C/c2cccs2)c2ccccc2N1 was read as AID504770 -0.8.
For CCOC(=O)/C=c1\[nH]c(=O)/c(=C\c2ccc(C)s2)s1 the results were AID504770 0.55.
Screening CCCC1c2cccn2CCN1C(=O)NC1CCCCC1 (stereo not drawn) returned AID504770 -1.3 and CapD inh -0.02.
`O=C(OCc1ncc(-c2ccccc2)o1)C12CC3CC(CC(C3)C1)C2` gave AID504770 0.9.
Cc1[nH]c(=O)[nH]c(=O)c1C1N2CC3(C)CN1CC(C)(C2)C3=O (stereo not drawn) was read as AID504770 -0.85 and CapD inh -0.02.
Screening Cc1ccc(C2CC(=O)C(C=NCCN3CCN(CC(=O)Nc4cc(C)cc(C)c4)CC3)=C(O)C2)cc1 (stereo not drawn) returned AID504770 0 and CapD inh 0.45.
For O=C(NC1CCCCC1)C(=S)N1CCCC1 the results were AID504770 -0.05 and CapD inh 0.085.
COC(=O)C(O)(CC(=O)Nc1ccc(C)c(F)c1)C(F)(F)F (stereo not drawn) was read as AID504770 -0.35 and CapD inh 0.42.
For CC(C)(C)NC(=O)Cn1c(S(=O)(=O)Cc2ccccc2)nc2ccccc21 the results were AID504770 -0.55 and CapD inh -0.41.
For CCOc1ccc(NC(=O)CSC2=C(C#N)C(c3ccc4c(c3)OCO4)CC(=O)N2)cc1 (stereo not drawn) the results were CapD inh 0.035.
`COc1cc(/C=C2/C(=N)N3C(=NC2=O)SN=C3S(=O)(=O)C(C)C)cc(Cl)c1OC(=O)c1ccco1` gave AID504770 0.8 and CapD inh -1.3.
COc1ccc2[nH]cc(CCNC(=O)OCCc3cccc(Cl)c3)c2c1 was read as CapD inh -1.
`Cc1cc2[nH]c(=O)c(=O)[nH]c2cc1S(=O)(=O)N1CCCc2ccccc21` gave AID504770 0.95 and CapD inh 4.8.
For Cc1ccc2nsnc2c1S(=O)(=O)NCc1ccc(S(N)(=O)=O)cc1 the results were CapD inh -0.62.
For O=C(Cn1cnc2c(cnn2-c2ccccc2)c1=O)Nc1ccccc1 the results were AID504770 -0.4 and CapD inh -0.66.

Compound activity (PubChem)
